# Source: PubChem BioAssay
# GIV Gai3 FP = inhibitors of GIV peptide binding to Galpha-i3, primary screen, biochemical, fluorescence polarization, FITC-GIV GBA peptide, rat Galphai3; Guanine nucleotide-binding protein G(i) subunit alpha-3 (Rattus norvegicus), P08753; 90 min; hits give low values; scaled: aluminum fluoride 0%, vehicle 100%; percent of control (FP), % (test concentration not listed); 210,000 tested, 0.42% active; AID 1224905, 2016;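 active = replicate mean at 85% of control or lower, very high polarization wells dropped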;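 also: wells of about 15 µL received 100 nL stock; the first replicate is given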
# Target sequence (P08753 whole entry, looked up): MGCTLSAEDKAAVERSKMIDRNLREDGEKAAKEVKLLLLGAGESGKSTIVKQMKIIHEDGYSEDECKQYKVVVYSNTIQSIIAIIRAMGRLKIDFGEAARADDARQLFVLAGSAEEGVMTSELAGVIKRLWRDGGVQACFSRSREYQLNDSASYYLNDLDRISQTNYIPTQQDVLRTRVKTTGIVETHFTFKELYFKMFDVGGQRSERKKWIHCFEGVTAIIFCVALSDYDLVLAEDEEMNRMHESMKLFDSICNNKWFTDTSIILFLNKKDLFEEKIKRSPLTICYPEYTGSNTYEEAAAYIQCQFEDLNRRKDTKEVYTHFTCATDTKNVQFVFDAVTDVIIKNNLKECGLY
# HCMV NEC inh = inhibitors of HCMV UL50-UL53 interaction, biochemical, HTRF | HCMV UL50-UL53 nuclear egress complex (human cytomegalovirus) | inhibition, % (test concentration not listed) | 190,000 tested, 0.15% active | normalized percent inhibition | AID 1918969, 2023;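 active = both replicates at 50% or more, plus weaker picks with an unusually low signal ratio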;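 also: stock transfer was 100 nL into about 20 µL; 0% = negative control wells and 100% = wells with untagged competitor protein; inactives centre near -12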
# Sa growth inh = S. aureus growth inhibition at 42 and 30 °C, primary screen, LtaS inhibitor project, RN4220, two temperatures | AID 720641, 2013 | OD600, 20 h, 42 °C; hits give low values | relative growth, % (test concentration not listed) | 170,000 tested, 0.53% active;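 active = growth at 42 °C up to 50% and 20 or more points under that at 30 °C, or under 10% at both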;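 also: 300 nL library stock went into each well; scaled to the means of positive and negative controls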
# Sa growth inh second temp = further read-out of Sa growth inh, marked with its call; relative growth, %; measured here: growth at 30 °C;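 optical density after 20 h as mean of two plates; 100% = untreated growth and lower means inhibition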
# The depositor's hits bear a star; . = no result given; & = joins results of further samples.
SMILES,GIV Gai3 FP,HCMV NEC inh,Sa growth inh,Sa growth inh second temp
COc1ccc(OC)c(-c2cc(C(=O)N3CCCc4ccccc43)no2)c1,101,-5,88,87
CC1(C)Cc2c(c(N3CCNCC3)[nH]c(=S)c2C#N)CO1,98,8,79,110
C=CCc1ccccc1Oc1cc(F)nc(N)n1,97,-8,100,86
COc1ccc(CN2CCN(Cc3cc(=O)oc4cc(C)ccc34)CC2)c(OC)c1OC,98,4,106,72
Cc1ccc(-c2cc(N)n(Cc3cccc(Cl)c3)n2)cc1,101,-14,80,87
COc1ccc(C2=C(C)C(N3CCC(C(=O)NCCN4CCOCC4)CC3)=NS2(=O)=O)cc1,104,-42,.,.
COC(=O)Cc1cc(=O)[nH]c(/N=C(\N)Nc2cccc(C)c2)n1,101,-22,96,82
CCCCN(C)C(=O)c1cnn(-c2ccc(C)cc2)c1-n1cccc1,110,-20,85,85
Cc1ccn2cc(CCNC(=O)c3ccc(C(F)(F)F)cc3)nc2c1,100,.,86,71
CC(C)C(NC(=O)C1CCCCC1)C(=O)Nc1ccc2c(c1)OCCO2 (configuration not stated),95,-25,103,80
Cc1ccnc2nc(C(=O)Nc3ccc(S(=O)(=O)N4CCCC4)cc3)nn12,.,-4,92,93
CC(=O)Nc1ccc(C)cc1-c1nnc(SC(C)C(=O)Nc2cccc(C)c2C)[nH]c1=O (configuration not stated),104,-3,.,.
FC(F)(F)COc1nc(NCCOC23CC4CC(CC(C4)C2)C3)nc(OCC(F)(F)F)n1,.,-4,79,93
NC(=S)NN1N=C(c2ccccc2)CC1=O,97,4,77,97
CCc1ccccc1NC(=O)CSc1nc2c(c(=O)[nH]1)CCC2,109,.,98,84
CN(Cc1ccc(-c2ccc(Cl)cc2)o1)C(=O)CC1Oc2ccccc2NC1=O (configuration not stated),.,-32,38,1
Cc1sc2c(c1C)c(=O)n(Cc1ccccc1)c(=O)n2CC(=O)N(C)c1ccccc1,96,-7,113,81
CCOC(=O)c1oc2ccc(Br)cc2c1N,98,-16,128,79
CC(=O)Nc1ccc(S(=O)(=O)NCCc2cn3ccsc3n2)cc1,110&115,.,95,93
CCCN(CC1CC1)C(=O)CSc1nc(N)cc(N)n1,.,-20,95,97
O=C(CN1CCCC1)N1c2ccccc2Sc2ccccc21,100,-13,97,81
Oc1ccc(C2(c3ccccc3O)CCCCC2)cc1,.,-9,30,36
COc1cc(CN2CCc3nc(N4CCN(c5ccccc5F)CC4)ncc3C2)ccc1OC(C)C,110,.,110,102
Cc1cccc(C2N=C(c3cnccn3)NN2)c1 (configuration not stated),102,-112,90,88
CC1CCN(C(=O)C(C)Sc2nc(-c3ccccc3)cc(C(F)(F)F)n2)CC1 (configuration not stated),99&102,6&-14,98,102

# No new results follow: an excerpt of the list.
SMILES,GIV Gai3 FP,HCMV NEC inh,Sa growth inh,Sa growth inh second temp
COc1ccc(OC)c(-c2cc(C(=O)N3CCCc4ccccc43)no2)c1,101,-5,88,87
CC1(C)Cc2c(c(N3CCNCC3)[nH]c(=S)c2C#N)CO1,98,8,79,110

# In another format: entries from further up.
compound	GIV Gai3 FP	HCMV NEC inh	Sa growth inh	Sa growth inh second temp
CCOC(=O)c1oc2ccc(Br)cc2c1N	98	-16	128	79
CC(=O)Nc1ccc(S(=O)(=O)NCCc2cn3ccsc3n2)cc1	110&115	.	95	93
CCCN(CC1CC1)C(=O)CSc1nc(N)cc(N)n1	.	-20	95	97
O=C(CN1CCCC1)N1c2ccccc2Sc2ccccc21	100	-13	97	81
Oc1ccc(C2(c3ccccc3O)CCCCC2)cc1	.	-9	30	36
COc1cc(CN2CCc3nc(N4CCN(c5ccccc5F)CC4)ncc3C2)ccc1OC(C)C	110	.	110	102
Cc1cccc(C2N=C(c3cnccn3)NN2)c1 (configuration not stated)	102	-112	90	88

# Profiles, quoted from the list:
# C=CCc1ccccc1Oc1cc(F)nc(N)n1 reads GIV Gai3 FP = 97; HCMV NEC inh = -8; Sa growth inh = 100; Sa growth inh second temp = 86
# COc1ccc(C2=C(C)C(N3CCC(C(=O)NCCN4CCOCC4)CC3)=NS2(=O)=O)cc1 reads GIV Gai3 FP = 104; HCMV NEC inh = -42; Sa growth inh = .; Sa growth inh second temp = .

# The list goes on.
SMILES,GIV Gai3 FP,HCMV NEC inh,Sa growth inh,Sa growth inh second temp
COc1cccc(Cn2c(CNS(=O)(=O)c3ccc4c(c3)CCCC4)nc3cccnc32)c1,112,.,79,100
COc1cc(NC(=O)CCCc2nnc3n(CC(C)C)c(=O)c4sccc4n23)cc(OC)c1,101,.,111,91
CC(C)n1c(=O)c(=O)[nH]c2cc(-c3noc(-c4ccc(C(C)(C)C)cc4)n3)ccc21,101,-14,.,.
Oc1ccccc1O,96,-9,.,.
CCN(C(=O)C1CCC(CNS(=O)(=O)c2cccc3nsnc23)CC1)c1ccccc1 (configuration not stated),104,-48,96,91
CCOC(=O)c1c(Oc2ccc(C(=O)OC)cc2)nnc(-c2ccccc2)c1-c1ccccc1,98,-28,104,92
Cc1ccc(S(=O)(=O)c2cn(CC(=O)Nc3ccc(C)c(Cl)c3)c3ccc(C)cc3c2=O)cc1,110,-31,102,80
COc1ccc(Cc2c(C)nn(-c3nc(C)c(C(=O)N4CCCC4)s3)c2C)cc1,97,-13,.,.
COc1ccc(C)cc1NC(=O)c1ccc2c(c1)CCN2S(=O)(=O)c1ccc(Cl)cc1,102,-31,102,85
Cc1nn(C)c2sc(C(=O)NCCc3ccccn3)cc12,106,-2,97,89
COc1cccc(-c2ccc(-c3noc(-c4ccccc4Br)n3)c(OC)n2)c1,101,-45,98,94
Nc1[nH]c(=O)[nH]c(=O)c1N=Nc1cc(C(=O)O)cc(C(=O)O)c1,.,-95,89,96
CCc1nn2c(=O)c(S(=O)(=O)Nc3ccccc3)c(C)nc2s1,107,.,77,81
CCSc1nnc2c(n1)OC(c1ccc(Br)cc1)Nc1ccccc1-2 (configuration not stated),24*,-10,.,.
COc1ccc(S(=O)(=O)NCCn2c(-c3ccc(F)cc3)nc3cccnc32)cc1,112,1,.,.
Cc1cccc(OCC(O)Cn2c(=N)n(C)c3ccccc32)c1 (configuration not stated),102,3,95,88
O=C(Nc1ccccc1)C1Cc2ccccc2CN1S(=O)(=O)c1ccc(F)cc1 (configuration not stated),103,.,99,81
COc1cc(CN(C(=O)COc2ccc(C)c(C)c2)c2ccccn2)cc(OC)c1OC,103,-17,110,85
Cc1noc2ncnc(N3CCCCC3)c12,100,16,99,106
Cc1cc(C)cc(NC(=O)CCc2c(C)nc3c4cccnc4nn3c2C)c1,103,-26,115,90
CC(C)(C)NCC(=O)Nc1ccccc1-c1ccccc1,.,-12,78,94
COCc1nc(-c2ccc(-c3ccc(OC)cc3)nc2OC)no1,113,-19,86,62
O=C(CCS(=O)(=O)c1cc2c(cc1Cl)NC(=O)CO2)NCc1ccccc1Cl,102,.,119,93
Cc1ccc(S(=O)(=O)NC(=O)OCCn2ncc3ccccc3c2=O)cc1,99,-21,102,83
COCC(C)NC(=O)C1CC(c2c(F)cccc2Cl)=NO1 (configuration not stated),101,-25,.,.
COc1ccc(-c2cn(-c3ccccc3)c3[n+]2CCS3)cc1,94,.,88,82
O=c1[nH]nc(COc2ccccc2)c2nnn(Cc3ccccc3)c12,95,-9,93,88
Cc1ccsc1CC1C(=O)Nc2ccc(Br)cc21 (configuration not stated),108,1,.,.
CN1C(=O)Cc2cc(S(=O)(=O)NCCc3ccc(Cl)cc3)ccc21,106,.,99,96
CC1Cc2ccccc2N1C1=CC(=O)CCC1 (configuration not stated),.,3,94,89

# A second format for part of the listing above.
SMILES | GIV Gai3 FP | HCMV NEC inh | Sa growth inh | Sa growth inh second temp
Cc1cc(C)cc(NC(=O)CCc2c(C)nc3c4cccnc4nn3c2C)c1 | 103 | -26 | 115 | 90
Cc1nn(C)c2sc(C(=O)NCCc3ccccn3)cc12 | 106 | -2 | 97 | 89
CC1Cc2ccccc2N1C1=CC(=O)CCC1 (configuration not stated) | . | 3 | 94 | 89
Nc1[nH]c(=O)[nH]c(=O)c1N=Nc1cc(C(=O)O)cc(C(=O)O)c1 | . | -95 | 89 | 96
COc1ccc(-c2cn(-c3ccccc3)c3[n+]2CCS3)cc1 | 94 | . | 88 | 82
CC(C)n1c(=O)c(=O)[nH]c2cc(-c3noc(-c4ccc(C(C)(C)C)cc4)n3)ccc21 | 101 | -14 | . | .

# Rows were taken by chance. Share with any hit: about 0.8%.
